NS1 function inh = inhibitors of influenza NS1 protein function; Potency, µM (doses to about 46.1 µM), inactives show at the top dose activity, positive = more growth; AID 2326; S. cerevisiae slowed by influenza A NS1, growth recovery by OD600; 0.4% of 270,000 active; active means well fitted rising curve with a large enough effect; inconclusive means small, poorly fitted or top-dose-only effect; inactive means no such curve, though single readings can be large or run the other way; further: nearly all actives have a fitted effect of over 50% in size
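A cell-based growth assay was used: compounds that relieve NS1-induced slow growth of budding yeast raise OD600. Assay medium was yeast nitrogen base with ammonium sulphate and -URA supplement, pH 6.0, with 2% galactose.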
SARS PLP yeast = inhibitors of SARS-CoV papain-like protease in yeast | S. cerevisiae expressing SARS-CoV PLpro, growth rescue; control for the full effect not named in the record | Potency, µM (titrated, usually from 32.9 µM), for the others: at the top dose activity, positive = growth rescue | 0.19% of 330,000 active | AID 485353; active means well fitted rising curve with a large enough effect; inconclusive means small, poorly fitted or top-dose-only effect; inactive means no such curve, though single readings can be large or run the other way; further: 0% is about no effect; nearly all actives have a fitted effect of over 55% in size; growth read by luminescence after 48 h
Cruzain noTriton = blocks cruzain activity in detergent-free assay. purified cruzain, Z-FR-AMC fluorescence, no detergent. Potency, µM, without a hit: max response, negative = inhibition, usual class: inhibitors. 2.3% of 200,000 active. AID 1476;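 further: plate controls were enzyme without inhibitor for no effect and buffer without enzyme for full effect; nearly all actives have a fitted effect of over 40% in size; top concentration of the series not given in the record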
Target sequence (P25779 123-467 limits assumed): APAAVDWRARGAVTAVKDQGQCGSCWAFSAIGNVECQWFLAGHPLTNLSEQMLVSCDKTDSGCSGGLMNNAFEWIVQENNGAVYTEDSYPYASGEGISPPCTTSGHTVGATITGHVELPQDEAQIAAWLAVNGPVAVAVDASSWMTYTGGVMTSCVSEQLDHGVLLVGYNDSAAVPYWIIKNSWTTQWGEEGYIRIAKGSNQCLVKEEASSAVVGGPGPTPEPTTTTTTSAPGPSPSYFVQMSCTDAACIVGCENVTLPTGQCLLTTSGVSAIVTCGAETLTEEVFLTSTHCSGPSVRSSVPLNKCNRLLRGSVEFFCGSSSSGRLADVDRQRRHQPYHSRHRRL
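Detergent-free condition (0.00005% Triton X-100) in acetate buffer pH 5.5 with DTT. 1.5 nM enzyme and compound were pre-mixed 15 min, then 2 uM Z-FR-AMC substrate added; reaction progress from fluorescence change between first and third reads (60 s).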
RE007 growth inh = less growth of the S. pombe RE007 Vpr strain; S. pombe RE007 Vpr strain, BacTiter-Glo ATP luminescence, 24 h; control for the full effect not named in the record; Potency, µM (highest dose often 92.2 µM), for the others: at the highest dose activity change, negative = less growth; 0.21% of 360,000 active; AID 651644; active = well fitted falling curve with a large enough effect; inconclusive = small, poorly fitted or top-dose-only effect; inactive = no such curve, though single readings can be large or run the other way;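 further: on the % scale 0 is the no-effect control and ±100 the full control effect; nearly all actives have a fitted effect of over 50% in size; the assay follows cell death caused by Vpr and the record does not say whether a fall means rescue or toxicity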
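Fission yeast RE007 carrying one integrated HIV-1 vpr copy, seeded at OD 0.01 in PMG+AL medium with 23 nL pinned compound. Grown 24 h at 30 degrees; viability read by BacTiter-Glo luminescence after 5 min.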
LASV entry inh = inhibitors of Lassa virus binding or cell entry. Lassa virus pseudotype entry inhibition, cell reporter; control for the full effect not named in the record. Potency, µM (doses to about 37.9 µM), without a hit: at the highest dose activity change, negative = inhibition, most hits filed as inhibitors. 1.2% of 300,000 active. AID 540256; active means well fitted inhibition curve with a large enough effect; inconclusive means small, poorly fitted or top-dose-only effect, or effect the other way; inactive means flat fitted curve, though single readings scatter; tested in HEK293 cells; further: on the % scale 0 is the no-effect control and ±100 the full control effect; nearly all actives have a fitted effect of over 50% in size; luciferase read-out
Cruzain inh Det = cruzain (T. cruzi) inhibition with detergent; purified cruzain, Z-FR-AMC fluorescence, 0.01% Triton; AID 1478; 0.43% of 200,000 active; Potency, µM, for inactives: max response, negative = inhibition, actives largely listed as inhibitors;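 further: plate controls were neutral wells for no effect and buffer without enzyme for full effect; nearly all actives have a fitted effect of over 40% in size; top concentration of the series not given in the record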
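Steps: dispense cruzain (1.5 nM final) in acetate buffer pH 5.5 with DTT and 0.01% Triton X-100; pin-transfer compounds; incubate 15 min RT; add Z-FR-AMC (2 uM final); read fluorescence every 30 s, using the 60 s intensity change.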
MARV entry inh = inhibitors of Marburg virus binding or cell entry | 1.8% of 300,000 active | Potency, µM (highest dose often 37.8 µM), without a hit: at the highest dose activity change, negative = inhibition, hits mostly inhibitors | Marburg virus pseudotyped entry inhibition, cell reporter; control for the full effect not named in the record; about a third of the inactives were read at about 46 µM; active = well fitted inhibition curve with a large enough effect; inconclusive = small, poorly fitted or top-dose-only effect, or effect the other way; inactive = flat fitted curve, though single readings scatter; tested in HEK293 cells; about a fifth of its hits are not listed in these tables; further: on the % scale 0 is the no-effect control and ±100 the full control effect; luciferase read-out
StopGo reporter = FMDV 2A StopGo reporter, luciferase signal. human cells with a luciferase reporter of 2A StopGo recoding; control for the full effect not named in the record. Potency, µM (series often up to 57.9 µM), without a hit: at the highest dose signal change, negative = less light. 1.2% of 410,000 active. AID 1159524; active = well fitted falling curve with a large enough effect; inconclusive = small, poorly fitted or top-dose-only effect; inactive = no such curve, though single readings can be large or run the other way; tested in HEK293T cells; further: on the % scale 0 is the no-effect control and ±100 the full control effect; nearly all actives have a fitted effect of over 45% in size; luciferase light after 4 h
The depositor's hits bear a star; ? = inconclusive; . = no result given; [ ] = another dose, or the depositor's remark. Unless noted, the call rests on the fitted dose curve; in most records, active means well fitted curve in the direction sought with a large enough effect; inconclusive means small, poorly fitted or top-dose-only effect, or another doubt; inactive means no such curve, though single readings can be large; an effect the other way counts as inactive or inconclusive. Potency means the concentration at half of the fitted maximal effect.

Compound | SARS PLP yeast | NS1 function inh | RE007 growth inh | LASV entry inh | StopGo reporter | Cruzain inh Det | Cruzain noTriton | MARV entry inh
CN1CCCC(OC(=O)c2ccc3c(c2)OCCO3)C1 (stereo unspecified) | -2% | -6% | 5% | 0% | 4% | 3.2% | -11% | ?
CCCCn1c(-c2csc(CCC)c2)n[nH]c1=S | -5% | -81% | 6% | 7%[46.1 µM] | -11% | . | . | ?
Cc1cc2cc(C)c3nnc(SCC(=O)Nc4ccc(S(=O)(=O)N5CCCCC5C)cc4)n3c2cc1C (stereo unspecified) | 15% | 4% | -1% | 8% | -23% | 1.0% | ? | ?
COc1ccc(/C=C2/SC(=O)N(CCNC(=O)CC(NC(C)=O)c3ccccc3)C2=O)cc1 (stereo unspecified) | 0% | 3% | -13% | 8% | 38%[activator] | . | . | ?
O=C1CN(C(=O)c2ccc(Cl)nc2)c2ccccc2N1 | 2% | 1% | -1% | ? | -7% | . | . | -2%[46.1 µM]
O=C(CCN1C(=O)/C(=C/c2ccc(Cl)cc2)SC1=S)Nc1cccnc1 | -3% | -7% | -8% | 5%[46.1 µM] | -1% | . | . | 5%[46.1 µM]
O=c1[nH]c(=S)n(CCC2=CCCCC2)c(O)c1C=NC1CCN(Cc2ccccc2)CC1 | 5% | 7% | 14% | -17% | ? | 3.9% | -6% | ?
O=C(Nc1ccccc1)c1ccccc1OS(=O)(=O)c1ccccc1 | -10% | -4% | -10% | 8% | 0% | . | . | .
O=C(Cc1ccccc1)c1ccccn1 | . | . | 20% | 5% | -5% | . | . | -4%
NS(=O)(=O)c1ccc(NC(=S)NC(=O)/C=C/c2cccs2)cc1 | -2% | 10% | -1% | 2% | 18% | . | . | ?

(next part)
Compound | SARS PLP yeast | NS1 function inh | RE007 growth inh | LASV entry inh | StopGo reporter | Cruzain inh Det | Cruzain noTriton | MARV entry inh
COc1ccc(CCNC(C(=O)Nc2cc(C)cc(C)c2)c2ccccc2)cc1 (stereo unspecified) | -1% | -55% | 8% | ? | -11% | . | . | ?
COc1ccc(NC(=O)CN(C)C(=O)c2cccc(S(=O)(=O)N3CCCc4ccccc43)c2)cc1 | 1% | . | 11% | -18% | 10% | . | . | ?
Cc1cc(OCC(=O)NC(Cc2c[nH]c3ccc(O)cc23)C(=O)O)c2c(C)c(C)c(=O)oc2c1 (stereo unspecified) | -10% | 14% | -3% | . | -17% | . | . | .
COc1cc(S(=O)(=O)N2CCN(Cc3cccs3)CC2)ccc1NC(C)=O | -1% | . | -5% | 1% | -7% | . | . | ?
CCOc1ccc(NC(=O)CSc2nc3[nH]ncc3c(=O)[nH]2)cc1 | . | . | -10% | 1% | -25% | . | . | 5%
O=S(=O)(c1cccc(-c2csc(-c3cccnc3)n2)c1)N1CCOCC1 | -3% | -7% | -5% | -23% | -9% | . | . | -11%[46.1 µM]
CN1CCN(S(=O)(=O)c2cccc(C(=O)NCc3ccccc3Cl)c2)CC1 | -1% | . | 15% | 1% | -1% | . | . | -28%
FC(F)(F)c1nc2ccccc2n1CCNc1nc(CN2CCCCC2)cs1 | 6% | 3% | 2% | . | -9% | . | . | .
O=C1CCCN1CCc1cccc2ccccc12 | . | . | 1% | 7%[46.1 µM] | -2% | . | . | 6%[46.1 µM]
CCOC(=O)c1snc(-c2ccc(F)cc2)c1N | 8% | -15% | -7% | 8% | 66%[activator] | -4.4% | -6% | ?

Next results follow.
Compound | SARS PLP yeast | NS1 function inh | RE007 growth inh | LASV entry inh | StopGo reporter | Cruzain inh Det | Cruzain noTriton | MARV entry inh
CCCOc1ccccc1N/C(=N/c1nc(C)cc(C)n1)NC(=O)Nc1ccc(Cl)cc1 | 2% | 8% | -16% | ? | -27% | 4.8% | 7.9µM* | 0.71µM*
Cc1ccc(-n2nc3c(=O)n(CC(=O)NCCC(C)C)nc(C)c3c2C)cc1 | . | . | . | -9%[46.1 µM] | -10% | -0.9% | -5% | .
CCNS(=O)(=O)c1ccc(NS(=O)(=O)c2cc(C)ccc2C)cc1 | 2% | -2% | 6% | -1% | 79%[activator] | -12% | -2% | -27%
Cc1noc(NS(=O)(=O)c2ccc(NC(=O)C(CC(C)C)N3C(=O)c4ccccc4C3=O)cc2)c1C (stereo unspecified) | 0% | 0% | 5% | . | -3% | . | . | .
CCc1nc(SCC(=O)N2CCCC2)c2ccccc2n1 | -4% | -7% | 13% | -5% | . | -3.8% | -5% | 11%
COc1ccc(-n2cc(-c3ccccc3)c3c(NCCc4ccc(OC)c(OC)c4)ncnc32)cc1 | . | . | . | ? | ? | -2.2% | ? | .
COc1cccc2c1cc1c(=O)n(CC(=O)NC3CC3)nc(C)n12 | . | . | . | . | -13% | 0.0% | 3% | 2%[46.1 µM]
Cc1nn(C(C)C(=O)N2CCc3ccccc32)c(C)c1[N+](=O)[O-] (stereo unspecified) | ? | 1% | -16% | 7% | . | 2.0% | -6% | -5%
COc1ccc(NC(=S)N/N=C/c2cccn2Cc2ccc(F)cc2Cl)cc1 | 0% | . | -10% | ? | -28% | . | . | ?
CSc1ccccc1NC(=O)CN(c1ccccc1Br)S(C)(=O)=O | 20% | 5% | 10% | -4% | -2% | -2.4% | 0% | ?

(listing goes on)
Compound | SARS PLP yeast | NS1 function inh | RE007 growth inh | LASV entry inh | StopGo reporter | Cruzain inh Det | Cruzain noTriton | MARV entry inh
COc1ccc(-c2cc(C(=O)Nc3c(C)n(C)n(-c4ccccc4)c3=O)c3ccccc3n2)cc1 | -3% | -1% | 2% | -2% | 8% | . | . | ?
NNC(=O)C(Cc1ccc(O)cc1)N1Cc2ccccc2C1=O (stereo unspecified) | -1% | 0% | 5% | . | -10% | . | . | .
CCC1Oc2ccc(C)cc2N(CC(=O)N(Cc2ccncc2)Cc2ccco2)C1=O (stereo unspecified) | -4% | -4% | 12% | 9% | 0% | -6.4% | ? | -24%
O=C(O)Cc1ccc2c(c1)N(S(=O)(=O)c1cccc(C(F)(F)F)c1)CC(C(=O)O)O2 (stereo unspecified) | 1% | -1% | -1% | 7% | 0% | 1.8% | -1% | ?
C=CCn1c(Oc2ccccc2F)nc2c1c(=O)n(C)c(=O)n2C | 1% | 12% | -4% | . | -24% | . | . | .
COc1ccc(OC)c(-c2nc(C)sc2CC(=O)O)c1 | 1% | -3% | -9% | 23% | . | 2.8% | -4% | 12%
C=CCNC(=S)Nc1ccc(OC)c(S(=O)(=O)N2CCOCC2)c1 | 8% | 11% | 9% | 30%[46.1 µM] | -12% | . | . | -13%[46.1 µM]
CC(=O)O[C@]1(c2ccccc2)CCN(C)[C@H]2CCCC[C@@H]21 | 0% | -2% | 10% | 2% | -8% | -0.8% | 2% | -10%
CNc1nc(C)c([N+](=O)[O-])c(Nc2ccc(OC)cc2)n1 | -4% | -16% | -3% | 9% | -12% | . | . | ?
COc1ccc(N=c2oc3cc(O)ccc3cc2C(=O)NCC2CCCO2)c(OC)c1 (stereo unspecified) | 13% | 2% | -3% | 8% | 27% | -7.9% | 16% | -5%

Other results.
Compound | SARS PLP yeast | NS1 function inh | RE007 growth inh | LASV entry inh | StopGo reporter | Cruzain inh Det | Cruzain noTriton | MARV entry inh
O=C(NCCCn1ccnc1)/C(=C\c1cccnc1)NC(=O)c1ccccc1Br | -15% | -14% | 3% | -8% | -17% | 0.1% | -2% | 17%
CCOc1ccc(NCc2cccn2-c2nnc(N3CCC(C(=O)NCCc4ccc(OC)c(OC)c4)CC3)s2)cc1 | . | . | . | . | 22µM* | 1.9% | ? | ?
O=C(CSc1nncn1-c1cccnc1)N(c1ccccc1)c1ccccc1 | -1% | -2% | -8% | -23%[46.1 µM] | -19% | . | . | 5%[46.1 µM]
CCc1c(C)nc2cc(-c3ccc(OC)c(OC)c3)nn2c1N1CCC(C)CC1 | -2% | 3% | -17% | 25% | 13% | -19% | ? | 1%
O=C(NCCn1cc(SCc2ccccc2)c2ccccc21)c1ccccc1F | -10% | -5% | -2% | ? | ? | -5.0% | 1% | ?
Cc1ccc(S(=O)(=O)N2CCC(C(=O)Nc3ccc(S(=O)(=O)N4CCCC4)cc3)CC2)cc1 | 12% | . | -13% | -16%[46.1 µM] | -19% | . | . | ?
O=C(OCc1cccs1)c1ccccc1NS(=O)(=O)c1ccc2c(c1)OCCO2 | -6% | -1% | 21% | -25% | 16% | 2.0% | ? | ?
Cc1nc(C(F)(F)F)c(C(=O)NC(=O)Nc2ccc(OC(F)(F)F)cc2)s1 | -5% | 8% | -19% | 5% | -27% | -12% | 13% | -7%
COC(=O)c1ccc(NC(=O)C23CCC(C)(C(=O)O2)C3(C)C)cc1 (stereo unspecified) | -6% | -26% | -3% | 14% | 0% | 2.4% | 9% | 11%
O=C(O)c1cc([N+](=O)[O-])cc2c1nnn2O | 1% | . | ? | 21%[46.1 µM] | ? | . | . | 4%[46.1 µM]

Carrying on.
Compound | SARS PLP yeast | NS1 function inh | RE007 growth inh | LASV entry inh | StopGo reporter | Cruzain inh Det | Cruzain noTriton | MARV entry inh
Cc1cnn2c(C3CC3)ccnc12 | 3% | . | 2% | 3% | 6% | . | . | 6%[46.1 µM]
CC(C)CN(C)Cc1c(C(=O)N2CCc3ccccc3C2)nc2ccc(Cl)cn12 | 0% | -6% | -24% | -5% | -16% | . | . | 11µM*
O=C1c2oc3ccccc3c(=O)c2C(c2cccs2)N1CCCN1CCOCC1 (stereo unspecified) | 3% | -5% | -10% | 12% | 7% | -1.3% | -10% | 6%
O=Cc1ccc(OCC(=O)N2CCOCC2)cc1 | 0% | -2% | -18% | -5% | -4% | . | . | -6%[46.1 µM]
CCCOc1ccc(N2C(=O)CC(N3CCC(c4nncn4CC)CC3)C2=O)cc1 (stereo unspecified) | . | -233% | 13µM* | -12% | -22% | 6.2% | 11% | 3%
CCOc1ccc(N(CC(=O)NC2CCCCC2)C(=O)CCC(=O)Nc2ccccn2)cc1 | 6% | 9% | -16% | . | 22% | . | . | -13%[46.1 µM]
Cc1ccc(C(C)C)c(OCCCCCN2CCOCC2)c1 | -1% | -33% | -12% | -2%[46.1 µM] | -7% | . | . | ?
Cc1onc(-c2ccccc2)c1C(=O)N=C(N)c1ccc(Cl)cc1 | -1% | -3% | 12% | -18% | -26% | . | . | 2%[46.1 µM]

No enrichment for hits. Share with any hit: about 4.7%.
